Bioassay records from PubChem BioAssay.
UCH37 DUB inh = human UCH37 deubiquitinating enzyme inhibition; Q9Y5K5; purified proteasome/UCH37, Ub-AMC cleavage fluorescence; inhibition, % (no concentration beside the values); 330,000 compounds, 0.33% hits; AID 588478;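 active = mean of two replicates above 20%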;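 note: 0% = compound-free wells with enzyme and 100% = wells lacking proteasome; stock transfer was 100 nL into about 20 µL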
Target sequence (Q9Y5K5 whole entry, looked up): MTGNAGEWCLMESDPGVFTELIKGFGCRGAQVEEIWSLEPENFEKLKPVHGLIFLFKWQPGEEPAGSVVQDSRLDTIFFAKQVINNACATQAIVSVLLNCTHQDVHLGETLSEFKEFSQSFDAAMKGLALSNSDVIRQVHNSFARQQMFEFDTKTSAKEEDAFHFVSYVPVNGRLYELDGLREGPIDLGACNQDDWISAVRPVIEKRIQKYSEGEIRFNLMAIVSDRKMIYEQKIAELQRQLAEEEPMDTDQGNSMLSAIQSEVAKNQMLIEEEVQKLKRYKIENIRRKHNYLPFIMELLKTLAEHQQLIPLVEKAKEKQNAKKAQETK
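Assay system: Proteasome-bound UCH37. Buffer or medium: pH 7.4 Tris-HCl (50 mM) with ovalbumin, ATP-MgCl2, DTT. Incubation: 30 min preincubation with enzyme, 25 min cleavage at room temperature. Measured by: fluorescence, ex 355 nm, em 460 nm. Read-out basis: percent inhibition. Control set: wells without proteasome as full block, compound-free enzyme plus substrate as uninhibited.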
E coli growth = E. coli growth inhibition; Escherichia coli growth, OD600, 23 h; active compounds read low; OD600 absorbance (concentration not given with the values); 330,000 compounds, 0.21% hits;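 active = OD600 absorbance below the run mean of sample wells minus 3.6 SD, in any replicate, cut at about 0.56 in these data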;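 note: stock transfer was 300 nL into about 60 µL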
* = called active by the depositor.

SMILES | UCH37 DUB inh | E coli growth
Cc1ccc(C=NNC(=O)c2ccc(-n3cccc3)cc2)o1 | -0.4 | 0.72
O=[N+]([O-])c1ccc(C=NNC2=NS(=O)(=O)c3ccccc32)cc1 | 7.1 | 0.68
COc1ccc(OCC(=O)NN=C(C)CC(=O)Nc2cccc([N+](=O)[O-])c2)cc1 | 1.0 | 0.65
CN1C(=O)C(=NOC(=O)c2ccccc2Br)c2ccccc21 | 1.1 | 0.66
CCOC(=O)NN=Cc1cccc(Cl)c1Cl | 3.7 | 0.65
COc1ccc(C=NNC(=O)/C(=C/c2ccccc2)CCO)cc1 | 2.7 | 0.69
Oc1oc(-c2ccc(Br)cc2)nc1C=Nc1ccccn1 | 2.2 | 0.73
CC(=NNC(=O)CNc1ccccc1Cl)C(C)(C)C | -0.5 | 0.7
CC(C)(C)OC(=O)NCCC(=O)NN=Cc1ccc2ncccc2c1 | 1.8 | 0.61
COc1cc(C=NNC(=O)c2nonc2C)ccc1O | 0.3 | 0.67
CCNC(=S)NN=C(C)c1ccc2ccccc2c1 | 4.5 | 0.7
COc1cc(NN=Cc2ccccc2O)ncn1 | -12 | 0.65
Nc1c(C(=O)NC2CCCC2)c2nc3ccccc3nc2n1N=Cc1ccco1 | -185 | 0.68
Cn1cccc1C=NNC(=O)c1ccco1 | 13 | 0.62
ON=Cc1cn(-c2ccccc2)nc1-c1ccccc1 | 5.9 | 0.67

For reference, some entries already given.
SMILES | UCH37 DUB inh | E coli growth
Cn1cccc1C=NNC(=O)c1ccco1 | 13 | 0.62
ON=Cc1cn(-c2ccccc2)nc1-c1ccccc1 | 5.9 | 0.67

Next part
SMILES | UCH37 DUB inh | E coli growth
CCCCn1c(-c2ccc(Cl)cc2)nc2c(=O)n(C)c(=O)[nH]c21 | -52 | 0.79
Cc1n[nH]c(=S)n1N=Cc1ccc(-c2ccccc2[N+](=O)[O-])o1 | 5.2 | 0.7
Cc1cc(C(=NO)C(C)(C)NO)ccc1Cl | 3.8 | 0.72
Cc1ccc(SCc2c(C(=O)NN=Cc3cccnc3)nnn2-c2nonc2N)cc1 | -1.3 | 0.64
CC(=NNc1nc(-c2ccccc2)cs1)c1cccs1 | 0.8 | 0.69
CC(=NNC(=O)C1CC1c1ccccc1)c1cccc([N+](=O)[O-])c1 (centres undefined) | -2.7 | 0.76
Cc1occc1C(=O)NN=Cc1c(O)ccc2ccccc12 | -385 | 0.69
CC(=NNC(=O)CCC(=O)O)c1c(-c2ccccc2)c2cc(Br)ccc2[nH]c1=O | 5.3 | 0.74
Cn1c(=O)c2c(nc(CN3CCC(Cc4ccccc4)CC3)n2CCN2CCOCC2)n(C)c1=O | 3.4 | 0.65
CC(=NNc1ccccn1)c1ccc(Br)s1 | 3.6 | 0.61
CC(=O)Nc1cccc(C(C)=NNC(=O)c2ccccc2Cl)c1 | 4.0 | 0.72
CCOc1cc(C=NNC(=O)c2ccccn2)ccc1OC(=O)c1cccs1 | -19 | 0.67
CC(=NNC(N)=S)c1cc2ccc(O)cc2oc1=O | -79 | 0.66
CCOC(=O)NN=Cc1ccc(OC)c(O)c1 | 5.3 | 0.72
COc1cccc2cc(C(N)=O)c(=NNC(=O)c3ccccc3)oc12 | 4.8 | 0.68
COc1cccc(C=NNC(=O)CCc2ccccc2)c1 | 1.1 | 0.63
CCOc1cc(C=NNC(=O)CSc2nncn2C)ccc1OCc1ccccc1 | 5.7 | 0.66
CC(=NNC(=O)c1cc2ccccc2cc1O)c1ccc2c(c1)OCO2 | -3.8 | 0.71
Cc1ccc(C=NNc2ncnc3nc[nH]c23)cc1 | 9.9 | 0.64
Cc1ccsc1C=NNC(=O)Cc1cccn1C | 4.6 | 0.69
O=C1C2C3C=CC(C3)C2C(=O)N1N=Cc1ccc(-c2ccccc2[N+](=O)[O-])o1 (centres undefined) | 3.2 | 0.68
Cc1cccc(C=Nn2c(C)cc(C)c(C#N)c2=O)c1 | 4.1 | 0.7
COc1ccccc1C=NNC(=O)C(=O)NCc1cccnc1 | 4.5 | 0.7
Cc1ccc(OCC(=O)NN=Cc2cccnc2)cc1C | -0.2 | 0.68
CCOc1ccc(Oc2c(C=NNC(N)=O)c(C)nn2-c2ccccc2)cc1 | 1.9 | 0.66
Nc1nnc(CC(=O)NN=Cc2cccc(OCCOc3ccccc3)c2)s1 | 1.4 | 0.77
O=C(/C=C/c1ccccc1)NCC(=O)NN=Cc1ccccc1[N+](=O)[O-] | 8.5 | 0.62
C=CCn1c(CNc2ccc(C)cc2)nnc1SCC(=O)NN=Cc1ccc(O)cc1O | 10 | 0.67
O=C(NN=Cc1ccc(O)cc1O)c1ccc(NC(=O)C2CCCCC2)cc1 | -9.1 | 0.7
COc1cc(NC(=O)CC(C)=NNC(=O)C2CCCCC2)c(OC)cc1Cl | 3.9 | 0.65
Cc1cc(NN=Cc2ccc(O)cc2O)nc(-n2nc(C)cc2C)n1 | 0.2 | 0.64
Cc1ccc(NC(CSC(N)=O)=NS(=O)(=O)c2ccccc2)cc1 | 1.4 | 0.72
Oc1c(Br)cc(C=NNc2ccc(Cl)nn2)cc1Br | -5.2 | 0.66
CCOc1ccc(C(=O)NN=Cc2cc(Cl)ccc2[N+](=O)[O-])cc1 | 4.2 | 0.59
Cc1ccc(NC2=CC(=NS(=O)(=O)c3cccs3)c3ccccc3C2=O)cc1C | 3.7 | 0.69
CC(=O)Nc1ccc(C=NNC(=O)c2cc3ccccc3nc2C)cc1 | 4.1 | 0.71
COc1ccccc1C=NNC(=O)CNC(=O)c1ccccc1 | 1.8 | 0.71
CC(=NNC(=O)Cc1csc(N2CCOCC2)n1)c1ccccc1 | 4.3 | 0.71
C=CCn1c(COc2ccc(CC)cc2)nnc1SCC(O)=C(C#N)c1nc2ccccc2[nH]1 | -19 | 0.79
CC(=NNc1cc(Cl)nc(C)n1)c1ccc(Cl)c(Cl)c1 | 0.7 | 0.71
O=C(NN=Cc1cn(-c2cccs2)nc1-c1ccccc1)c1ccccc1Br | 3.5 | 0.73
CCC(=NNC(=S)NC(C)C)c1ccc(OC)c(OC)c1 | 5.2 | 0.66
O=C(Cc1ccc2c(c1)OCCO2)NN=Cc1ccco1 | 2.3 | 0.67
Cc1cccc(NC(=S)NN=Cc2ccc3c(c2)OCO3)c1 | 3.4 | 0.69
COc1ccc(NC(=S)NN=Cc2cccn2Cc2ccc(F)cc2)cc1 | 2.4 | 0.73

3 entries from above, arranged by heavy-atom count, largest number first:
SMILES | UCH37 DUB inh | E coli growth
C=CCn1c(COc2ccc(CC)cc2)nnc1SCC(O)=C(C#N)c1nc2ccccc2[nH]1 | -19 | 0.79
CC(=NNC(=O)Cc1csc(N2CCOCC2)n1)c1ccccc1 | 4.3 | 0.71
ON=Cc1cn(-c2ccccc2)nc1-c1ccccc1 | 5.9 | 0.67

Other structures
SMILES | UCH37 DUB inh | E coli growth
CCOc1ccccc1C=NNc1ccc(Cl)nn1 | 1.4 | 0.68
C(=NN=Cc1cccnc1)c1cccnc1 | 4.2 | 0.66
CC(=NNC(=O)C1CC1(c1ccccc1)c1ccccc1)c1cccs1 (centres undefined) | 1.8 | 0.73
CC(=NOCON=C(C)c1ccccc1F)c1ccccc1F | 4.4 | 0.66
CN(C)c1ccc(C=NNC2=NS(=O)(=O)c3ccccc32)cc1 | 9.5 | 0.64
CC1CC(C)CN(c2nc3c(c(=O)[nH]c(=O)n3C)n2CCCSc2nc3ccccc3s2)C1 (centres undefined) | 0.6 | 0.69
Cc1cc(C)c2c(N)c(C(=O)NN=Cc3cccs3)sc2n1 | -67 | 0.68
O=S(=O)(N=C(c1ccc(Cl)cc1)N1CCOCC1)c1ccccc1 | 3.4 | 0.64
COc1ccc(CN2C(=O)C(C)SC2=NN=Cc2ccco2)cc1 (centres undefined) | 5.0 | 0.66
Cc1ccc(-c2ccc(C=NN3C(=O)C4C5C=CC(CC5)C4C3=O)o2)c([N+](=O)[O-])c1 (centres undefined) | 8.3 | 0.67
Cn1ncc([N+](=O)[O-])c1C(=O)NN=Cc1ccc(F)cc1 | 5.2 | 0.68
CCCCP(=O)(c1ccccn1)c1ccccn1 | 3.6 | 0.66
CON=CCC(=O)Nc1ccc(Oc2ccccc2)cc1 | 5.6 | 0.71
CC(C)(C)OC(=O)NN=Cc1cccc([N+](=O)[O-])c1 | 3.0 | 0.65
Clc1ccccc1C=Nc1cc(-c2ccccc2)nn1-c1ccccc1 | 5.9 | 0.68
Cc1ccc(OCC(=O)NN=Cc2c(C)[nH]n(-c3ccccc3)c2=O)c([N+](=O)[O-])c1 | 7.7 | 0.73
COc1ccccc1NS(=O)(=O)c1cccc(C(=O)NN=Cc2ccc(C)o2)c1 | 4.0 | 0.69
CC(=NNC(=O)C(O)c1ccccc1)c1ccc(Br)s1 (centres undefined) | 2.9 | 0.65
CC(CC(=O)Nc1ccc2c(c1)OCCO2)=NNC(=O)c1ccccc1F | 3.7 | 0.67
Cc1cc(C)cc(N2CN=c3sc(=Cc4ccco4)c(=O)n3C2)c1 | 2.2 | 0.67
O=C(CSc1nnc(SCc2ccccc2Cl)s1)NN=Cc1c[nH]c2ccccc12 | 3.8 | 0.71
COCC(=O)NN=Cc1cccc(OC)c1OC/C=C/c1ccccc1 | 1.4 | 0.69
Clc1ccccc1/C=C/C=NNc1nc(N2CCOCC2)nc(N2CCOCC2)n1 | 9.8 | 0.71
COc1ccc(OC)c(C=NNC(=O)c2cc3c(OC)cc(OC)cc3[nH]2)c1 | -93 | 0.68
CC(C)Cc1ccc(C(=NO)C(=O)O)s1 | 2.9 | 0.7
Cc1ccccc1C1CC(=O)Oc2cc(O)ccc21 (centres undefined) | 1.7 | 0.65
Cc1ccc(C=c2sc3n(c2=O)CN(c2ccc(Br)cc2)CN=3)o1 | 2.9 | 0.69
CCCCNC(=S)N(C)N=Cc1ccc2c(c1)OCO2 | 3.8 | 0.7
O=C(CN1CCCCC1)NN=Cc1ccc(Cl)cc1Cl | 3.2 | 0.64
COc1cccc(OCc2cc(C=NNC(=O)c3nc(Cl)c(Cl)c(N)c3Cl)ccc2OC)c1 | -82 | 0.71
NC(=NOC(=O)c1ccccc1Cl)c1nonc1N | 4.9 | 0.68
C(=NN(c1ccccc1)c1ccccc1)c1ccc(N2CCOCC2)s1 | -3.0 | 0.73
O=C(CSc1nc2ccccc2o1)NN=Cc1ccc(C(=O)O)cc1 | 3.9 | 0.67
CC(/C=C/c1ccc2c(c1)OCO2)=NNC(=O)CNc1ccc(C)cc1 | 1.5 | 0.72
O=C1C2C(C(=O)N1N=Cc1ccc(N3CCCCC3)o1)C1C=CC2C12CC2 (centres undefined) | 6.5 | 0.69
CCCc1c(C(=O)NN=Cc2cccs2)nnn1-c1nonc1N | 1.0 | 0.69
CC(=NNc1ccc([N+](=O)[O-])cc1)c1ccc(C#N)cc1 | 5.3 | 0.71
C=CCN1C(=O)/C(=C/c2cccs2)SC1=NS(=O)(=O)c1ccc(F)cc1 | 0.9 | 0.69
Cc1cc(C=NNC(=O)c2cccnc2)c(C)n1CC(C)C | 8.7 | 0.67
COC(=O)c1cnn(-c2ccc(Cl)cc2)c1C=NNC(N)=S | 4.4 | 0.68
COc1cccc(C=NNC(=O)CSc2ccccc2C)c1O | -0.2 | 0.64
CC(C)C=NNc1nc(-c2ccc(Br)cc2)cs1 | 0.4 | 0.65
Cc1cc(C)nc(NN=Cc2cc(Br)ccc2O)n1 | 4.3 | 0.7
COc1cc(C(=O)ON=C2C=CC(=O)C(C)=C2C)cc(OC)c1OC | 6.2 | 0.7
CCOc1ccc(-c2c(C(=O)NN=Cc3ccoc3)nnn2-c2nonc2N)cc1 | 2.1 | 0.71

Three entries from above, with tabs:
SMILES	UCH37 DUB inh	E coli growth
C(=NN=Cc1cccnc1)c1cccnc1	4.2	0.66
CC(/C=C/c1ccc2c(c1)OCO2)=NNC(=O)CNc1ccc(C)cc1	1.5	0.72
CC(=NNC(=O)C(O)c1ccccc1)c1ccc(Br)s1 (centres undefined)	2.9	0.65

(next part)
SMILES | UCH37 DUB inh | E coli growth
COc1ccc(C=NNC(C)(C)C)c(OC)c1 | 5.9 | 0.69
CCCc1nc2ccccc2c(=O)n1N=Cc1ccccc1O | -1.3 | 0.78
COc1ccc(C=NNC(=O)c2cccnc2)cc1CN1CCOCC1 | 8.8 | 0.69
COc1ccc(C(=O)NN=Cc2ccc(SC)cc2)cc1 | -5.6 | 0.67
COc1cc(C=NNc2snc(SC)c2C#N)ccc1O | -75 | 0.68
ON=Cc1ccc2ccccc2n1 | 4.4 | 0.65
CC(=NNc1ccc2nncn2n1)c1cccs1 | 13 | 0.69
Cc1c(C(=O)NN=Cc2ccc(N3CCOCC3)cc2)nc2ccccn12 | -37 | 0.71
COc1ccc(C(=O)NN=C(C)Cn2nc([N+](=O)[O-])cc2C)cc1 | 3.4 | 0.68
CC(=O)n1cc(C=NNC(=O)c2ccc([N+](=O)[O-])cc2)c2ccccc21 | 8.0 | 0.67
C=CCC1(C=NO)CCOC(C)(C)C1 (centres undefined) | 6.1 | 0.7
CC(=O)n1cc(C=NNC(=O)c2ccccc2O)c2ccccc21 | -34 | 0.68
COc1cccc(-c2c(C(=O)NN=Cc3ccsc3)nnn2-c2nonc2N)c1 | 4.7 | 0.65

Only part of the results is shown; count on the stated rates, not on these rows.
